# Yeast UUG start = alters start codon recognition fidelity in yeast. S. cerevisiae UUG-firefly luciferase reporter, luminescence/redox ratio. activity score, % at 18.7 µM. 0.13% of 350,000 active;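 active means replicate mean at a twofold rise or more, about +100% in these data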;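 further: firefly luciferase made from a UUG start codon reports start codon fidelity; reporter light over untreated wells divided by growth signal over untreated wells; some hits fall short of that in this replicate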
# Rce1 inhib = inhibitors of yeast Ras-converting enzyme; AID 2563; calls only; 0.27% of 290,000 active; yeast membranes, quenched prenylated peptide cleavage fluorescence; Q03530;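 active means fall in fluorescence gain of 50% or more versus controls, with final raw signal at or below 3038400; inconclusive means same 50% fall but final raw signal above 3038400; inactive means fall in fluorescence gain under 50%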;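 further: plate controls were neutral control wells for no effect and wells lacking membranes for full effect; tested at 10 µM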
# MT1-MMP act inh = MT1-MMP (human) activation inhibition; P50281; 0.061% of 360,000 active; GFP/RFP ratio change, % at 20 µM; HT1080 RFP-PRO-GFP cells, GFP/RFP ratio fluorescence, overnight; percent of plate control window, DMSO zero;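 active means GFP/RFP ratio change of at least 30% with cell ATP level not reduced by more than half and red fluorescence within 50% of control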; further: strong numbers were not always called active
#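 Read-out: GFP/RFP fluorescence ratio; Test system: RFP-PRO-GFP reporter HT1080 cells; Compound dosing: single-point 20 µM compound, 1% DMSO; Times: overnight compound exposure at 37 °C.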
# HIV Env fusion = HIV envelope-mediated fusion inhibition. HeLa-JRFL Env/CEM21 cell fusion, luciferase. inhibition, % at 12.3 µM. 1.1% of 360,000 active. AID 651610;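 active means mean replicate inhibition score of at least 50 and every replicate individually at or above 50; inconclusive means only one of the two criteria met; inactive means mean below 50 and not all replicates reaching 50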;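 further: 0% = plate neutral controls and 100% = maraviroc near 300 nM; one replicate is shown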
# PABP FP inh = blocks human PABP binding to poly(A) RNA | 1% of 290,000 active | AID 2014 | inhibition, % at 35 µM | P11940 | fluorescence polarization;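 active means 50% or more with normal probe brightness, or confirmed in later tests; inconclusive means above 50% with abnormal brightness, or retests that disagree; inactive means below 50% or failed in later tests; about a fifth of its hits are not listed in these tables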;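 further: calls also rest on retests at 20 µM and on dose response follow-up; controls were probe without protein and protein plus probe with vehicle; some compounds called inactive have numbers as strong as hits; many hits fall short of the cut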
# Target sequence (P11940 whole entry, looked up): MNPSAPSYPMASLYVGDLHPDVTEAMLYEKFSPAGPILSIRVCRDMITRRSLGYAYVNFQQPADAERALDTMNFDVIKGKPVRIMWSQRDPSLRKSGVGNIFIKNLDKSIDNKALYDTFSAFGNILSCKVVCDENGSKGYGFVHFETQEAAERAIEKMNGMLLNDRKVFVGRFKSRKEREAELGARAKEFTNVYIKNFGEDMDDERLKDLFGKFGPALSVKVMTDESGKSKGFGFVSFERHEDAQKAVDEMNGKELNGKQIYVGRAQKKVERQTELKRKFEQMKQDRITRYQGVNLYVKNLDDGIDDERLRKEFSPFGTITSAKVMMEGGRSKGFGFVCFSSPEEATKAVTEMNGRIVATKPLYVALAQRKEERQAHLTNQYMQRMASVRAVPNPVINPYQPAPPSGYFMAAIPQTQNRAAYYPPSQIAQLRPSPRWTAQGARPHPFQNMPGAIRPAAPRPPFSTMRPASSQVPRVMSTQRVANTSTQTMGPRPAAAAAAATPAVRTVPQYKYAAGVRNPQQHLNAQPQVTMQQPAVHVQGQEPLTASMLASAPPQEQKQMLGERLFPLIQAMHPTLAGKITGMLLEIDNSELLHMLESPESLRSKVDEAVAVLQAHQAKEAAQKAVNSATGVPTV
# CSC inhib = cancer stem cell inhibition | cancer stem cell-like cells viability, luminescence | inhibition, % at 7.5 µM | 1.1% of 300,000 active;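 active means mean at 75% or more and at least half the replicates too; inconclusive means mean and replicates disagree; tested in HMLE shEcad cells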;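 further: 0% = median of negative and 100% = median of positive control wells; the first replicate is given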
# eIF4H FP inh = inhibitors of RNA binding by human eIF4H; inhibition, % at 35 µM; eIF4H fluorescence polarization binding assay; Q15056; 0.94% of 290,000 active; AID 2012;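 active means 50% or more with normal probe brightness, or confirmed in later tests; inconclusive means above 50% with abnormal brightness, or retests that disagree; inactive means below 50% or failed in later tests; about a fifth of its hits are not listed in these tables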;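 further: calls also rest on retests at 20 µM and on dose response follow-up; 0% = protein and probe with vehicle and 100% = probe without protein; strong numbers were not always called active; many hits fall short of the cut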
# MT1-MMP act inh RFP = further read-out of MT1-MMP act inh, marked with its call; RFP signal change, %; measured here: RFP expression control read;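 0 = vehicle wells; hits needed this value within 50% of zero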
# * = called active by the depositor; i = inactive; ? = inconclusive; . = not tested or not shown; & = joins results of further samples; [ ] = remark or other dose.
cpd	Structure	Yeast UUG start	Rce1 inhib	MT1-MMP act inh	MT1-MMP act inh RFP	HIV Env fusion	PABP FP inh	CSC inhib	eIF4H FP inh
1	Cc1ccc(-n2nc3c(c2NC(=O)c2ccccc2Br)CS(=O)C3)cc1 (stereo not drawn)	-9	i	-2	1	-8	6	-4	-9
2	Cc1ccc(NC(=O)COC(=O)C2CSC3(C)CCC(=O)N23)c(C)c1 (stereo not drawn)	-9	.	1	-2	.	.	3	.
3	CCOc1ccccc1CNC(=O)CCN1C(=O)COc2ccccc21	-10	i	2	7	.	-4	9	-2
4	COCCn1c(SCC(=O)Nc2ccc(N3CCOCC3)cc2)nc2ccccc21	.	i	-1	1	0	-9	-6	-2
5	Cn1nc(C(F)(F)F)c2cc(C(=O)Nc3ccc(F)c(Cl)c3)sc21	.	i	1	-6	-14	1	45	-1
6	COC(=O)c1ccccc1NC(=O)c1ccccc1N(C)S(C)(=O)=O	7	i	5	2	.	-8	-9	-2
7	Cc1cccc2sc(NC(=O)C3CCCO3)nc12 (stereo not drawn)	-6	i	-1	-2	.	6	-11	-1
8	O=C(O)C1CC(=O)N(c2ccc3c(c2)OCCO3)C1 (stereo not drawn)	-16	i	2	3	-7	7	4	8
9	CCC(c1nnnn1Cc1ccco1)N1CCN(c2cc(Cl)ccc2C)CC1 (stereo not drawn)	-6	i	-31	-18	.	7	94*	-14
10	Cc1ccc(Cl)cc1NC(=S)N(CCN(C)C)C(C)c1ccccn1 (stereo not drawn)	9	i	-2	2	25	-7	12	-4
11	C#Cc1ccc([C@H]2C=C(C(=O)N3CCN(Cc4ccc5c(c4)OCO5)CC3)O[C@@H](OCc3ccc(CO)cc3)C2)cc1	4&-10	i	-1	-3	4[16.7 µM]	-12	17	-4
12	CCCNC(=O)c1nn2c(C(F)(F)F)cc(-c3ccccc3)nc2c1Cl	1	i	-1	-4	3	-1	6	-1
13	COc1ccc2nc(C)cc(Nc3ccc(N4CCOCC4)cc3)c2c1	-6	i	7	-1	.	-10	.	-8
14	Cn1ccc2c(-c3ccc(C(=O)O)cc3)cc3c(c21)C1CCC3C1 (stereo not drawn)	-11	.	4	-1	-2	.	.	.
15	CCS(=O)(=O)Nc1ccc(C(=O)NCCSc2ccccc2)cc1	-16	i	-1	7	-15	14	-2	-7
16	COC(=O)C(c1ccccc1)C(CC(=O)c1ccccc1)c1ccccc1 (stereo not drawn)	-10	.	-7	-12	10	.	.	.
17	Cc1ccccc1OCC(O)CN1CCN(CC(O)COc2ccccc2C)C(C)C1 (stereo not drawn)	6	i	8	0	15	-4	-6	3
18	CC(=O)Nc1cccc(-c2ccnc3c2CC(C)(C(=O)Nc2cccc(Oc4ccccc4)c2)O3)c1 (stereo not drawn)	-28	.	-16	-16	-49	.	.	.
19	CC(=O)N1c2ccc(S(=O)(=O)NCCC(=O)Nc3ccc(C)c(Cl)c3)cc2CC1C (stereo not drawn)	-13	i	2	-2	1	3	-13	-6
20	O=C1CC(/C=C/c2ccc(Cl)cc2)=Nc2ccccc2N1	-9	i	-2	-8	-156	-21	-5	-8

# The closing three records of the section before lead into the next.
cpd	Structure	Yeast UUG start	Rce1 inhib	MT1-MMP act inh	MT1-MMP act inh RFP	HIV Env fusion	PABP FP inh	CSC inhib	eIF4H FP inh
18	CC(=O)Nc1cccc(-c2ccnc3c2CC(C)(C(=O)Nc2cccc(Oc4ccccc4)c2)O3)c1 (stereo not drawn)	-28	.	-16	-16	-49	.	.	.
19	CC(=O)N1c2ccc(S(=O)(=O)NCCC(=O)Nc3ccc(C)c(Cl)c3)cc2CC1C (stereo not drawn)	-13	i	2	-2	1	3	-13	-6
20	O=C1CC(/C=C/c2ccc(Cl)cc2)=Nc2ccccc2N1	-9	i	-2	-8	-156	-21	-5	-8
21	CSCCC(NS(=O)(=O)c1ccccc1F)C(=O)NCc1ccncc1 (stereo not drawn)	.	i	0	-2	2	.	-2	.
22	Cc1ccc(OCC(=O)Nc2ccc(S(=O)(=O)NC3=NCCCCC3)cc2)cc1	-26	.	0	-2	-18	.	.	.
23	Cc1ccc(OCCN2CCN(C(=O)CCC(=O)Nc3nnc(C)s3)CC2)cc1	-11	.	-9	-4	.	-4	4	-6
24	Clc1ccc(-c2cnc3cccnn23)cc1	-32	.	-5	0	5	.	.	.
25	O=C(c1ccc2c(c1)OCO2)N1CCN(c2ccc(F)cc2)CC1	-1	i	2	-1	-4	17	-8	-2
26	Oc1ccc(Br)cc1Cn1nnc2ccccc21	7	i	1	-3	34	-4	5	-3
27	O=[N+]([O-])c1nn(-c2ccc(Cl)cc2)n(O)c1=NCc1cccnc1	-21	i	0	-7	-98	2	-7	2
28	Cc1cccc(NC(=O)Nc2cc(C)on2)c1	4	i	5	3	-49	9	-1	9
29	COc1ccc(-n2nnnc2CNC(=O)c2ccc3c(c2)OCO3)cc1	7	i	4	2	-25	.	6	.
30	CN(C)/C=N/c1c(C#N)cnn1-c1nc2ccccc2s1	.	i	6	6	.	-8	-36	-7
31	Cc1ccc2c(c1)C=CC(C)N2C(=O)c1ccccc1 (stereo not drawn)	2	i	-4	-2	.	-4	8	-6
32	COC(=O)c1ccc(C(NC(=O)OCc2ccccc2)/C(C)=C/[C@@H](C)C(=O)NCc2ccc(-c3ccccc3)cc2)cc1 (stereo partly drawn)	-16	i	4	-6	.	33	3	-2
33	COc1cccc(/C=C/C(=O)c2cccc([N+](=O)[O-])c2)c1	.	i	1	-1	-52	1	12	2
34	O=C(O)c1ccc(CNC(=O)C2CCN(S(=O)(=O)c3cccs3)CC2)cc1	-20	.	0	4	-420	.	.	.
35	COc1cccc(OCc2cc(/C=N/NC(=O)c3ccn[nH]3)ccc2OC)c1	-11	i	-5	-2	.	-8	38	-1
36	O=C(Nc1cccnc1)C1CCCN(S(=O)(=O)c2cccc3nsnc23)C1 (stereo not drawn)	-8	i	-3	-4	15	-1	-5	5
37	CC(C)(C)CC(C)(C)NC(=S)Nc1ccc(S(=O)(=O)N2CCOCC2)cc1	.	i	2	-5	4	7	8	-2
38	O=S1(=O)CC(N2CCN(CC3CC3)CC2)CN1Cc1ccccc1 (stereo not drawn)	-4	.	5	6	-70	.	.	.
39	Cc1ccc(S(=O)(=O)N2CCOCC2)cc1NC(=O)COC(=O)C1COc2ccccc2O1 (stereo not drawn)	2	i	-2	1	4	-9	-1	-12
40	CCN(CC)CCCn1c(=S)[nH]c2ncccc2c1=O	58	i	8	-4	-93	4	-10	1

# The list goes on:
cpd	Structure	Yeast UUG start	Rce1 inhib	MT1-MMP act inh	MT1-MMP act inh RFP	HIV Env fusion	PABP FP inh	CSC inhib	eIF4H FP inh
41	CSc1ccc(Cl)c(C(=O)NCCOc2cc(C(C)C)ccc2C)c1	-3	i	2	-8	50	-3	2	-3
42	O=C(Nc1ccc(Oc2cccnc2)cc1)C1CCN(Cc2ccccc2F)CC1	-7	i	5	-7	23	8	.	-2
43	Cc1cc(=O)[nH]c(SCCOc2cccc(C(F)(F)F)c2)n1	.	i	5	3	.	-6	2	1
44	CC(=O)O[C@H]1CC[C@@]2(C)C(=CC[C@H]3[C@@H]4CC[C@H](C5(C)OCCO5)[C@@]4(C)CC[C@@H]32)C1	-10	i	5	5	.	.	-21	.
45	CCOC(=O)C(C)On1c(-c2ccccc2)nc2ccc([N+](=O)[O-])cc21 (stereo not drawn)	.	i	2	-7	.	0	-6	-3
46	O=C(COC(=O)CCCN1C(=O)c2cccc3cccc(c23)C1=O)Nc1cccc(Br)c1	.	i	-2	0	-11	-7	1	2
47	COc1ccc(CN2CCOCC2)c(C)c1C	2	i	6	0	-10	-1	1	-2
48	CC(C)Cc1nnc(NC(=O)CCC(=O)NC2CCCc3ccccc32)s1 (stereo not drawn)	-11	i	-1	0	-7	-1	-54	-5
49	O=C(CN1C(=O)NC2(CCCC2)C1=O)N1CCN(c2ccccc2Cl)CC1	-10	.	3	1	-11	.	-2	.
50	CC1=NN(C(=O)Cn2ccc([N+](=O)[O-])n2)C(O)(C(F)(F)F)C1 (stereo not drawn)	.	i	-1	2	17	1	-4	2
51	COc1ccc(N2CCN(C(CNC(=O)C(C)(C)C)c3ccco3)CC2)cc1 (stereo not drawn)	.	i	0	3	2	4	5	35
52	CCCNC(=O)C1(C)CCCN(Cc2ccsc2)C1 (stereo not drawn)	-26	.	-5	-2	-9	.	.	.
53	O=C(OCCN1C(=O)c2ccccc2C1=O)c1ccco1	-6	i	3	2	-94	1	.	0
54	CCOc1ccc(COC(=O)C2CC(=O)N(CCc3ccccc3)C2)cc1OC (stereo not drawn)	4	.	-1	1	.	.	-2	.
55	CN(C)S(=O)(=O)c1cccc(CSc2cccc[n+]2[O-])c1	-17	.	1	4	-118	-4	.	0
56	CCOC(=O)C1CCCN(C(=O)C2CCC(CNS(=O)(=O)c3ccc(NC(C)=O)cc3)CC2)C1 (stereo not drawn)	.	i	8	7	.	-2	-8	-5
57	S=C(Nc1ccccc1Cl)N1CCC(c2ccccc2)C1 (stereo not drawn)	.	i	0	-2	-28	1	4	-6
58	N#CC1C(C#N)N2CCCN2C1c1ccc(Br)cc1 (stereo not drawn)	.	i	0	3	4	4	-7	-3
59	CCOC(=O)CC1C(=O)NCCN1c1nc2c(C)cccn2c(=O)c1/C=C1\SC(=S)N(C(C)CC)C1=O (stereo not drawn)	.	i	.	.	.	?	54	?
60	O=C(NCCS(=O)(=O)c1ccc(Br)cc1)c1ccccc1Cl	-7	i	0	3	-42	2	7	-7

# More results follow:
cpd	Structure	Yeast UUG start	Rce1 inhib	MT1-MMP act inh	MT1-MMP act inh RFP	HIV Env fusion	PABP FP inh	CSC inhib	eIF4H FP inh
61	COC(=O)c1scc(S(=O)(=O)C(C)C)c1N/N=C(\C#N)C(=O)c1ccc(Cl)cc1	.	i	8	-24	0	-2	25	-9
62	Nc1ncc(S(=O)(=O)c2ccc(Cl)cc2)c(N)n1	-1	i	1	3	-9	0	-4	-6
63	O=C(c1noc2c1CCCC2)N1CCC(CO)(Cc2ccccc2Cl)CC1	-6	i	-7	-5	24	6	9	0
64	O=C(O)COc1cccc(/C=C2/SC(=S)N(Cc3ccccc3)C2=O)c1	-12	i	2	0	-5	0	19	6
65	O=C(CCC(=O)Nc1ccc(F)cc1)N/N=C/c1ccc(O)cc1O	-22	i	3	2	-2	-4	29	16
66	O=S(=O)(c1ccccc1)C1(S(=O)(=O)c2ccccc2)CCCC1	-7	i	-2	3	-142	8	.	7
67	CC1(C)Cc2ccccc2-c2n[nH]c(=S)n21	-20	i	-5	-2	.	-7	.	-2
68	CCCCn1c(SCC(=O)Nc2nnc(CC)s2)nc2ccccc2c1=O	-1	i	4	3	-18	1	19	-3

# By substructure: the compounds so far with a CF3 group
cpd	Structure	Yeast UUG start	Rce1 inhib	MT1-MMP act inh	MT1-MMP act inh RFP	HIV Env fusion	PABP FP inh	CSC inhib	eIF4H FP inh
5	Cn1nc(C(F)(F)F)c2cc(C(=O)Nc3ccc(F)c(Cl)c3)sc21	.	i	1	-6	-14	1	45	-1
12	CCCNC(=O)c1nn2c(C(F)(F)F)cc(-c3ccccc3)nc2c1Cl	1	i	-1	-4	3	-1	6	-1
43	Cc1cc(=O)[nH]c(SCCOc2cccc(C(F)(F)F)c2)n1	.	i	5	3	.	-6	2	1
50	CC1=NN(C(=O)Cn2ccc([N+](=O)[O-])n2)C(O)(C(F)(F)F)C1 (stereo not drawn)	.	i	-1	2	17	1	-4	2

# Some of the compounds tested; rates above refer to the full screens.
